# HEK293 tox: cytotoxicity in counter-screen for GLP-1R inverse agonists. HEK293 cAMP-luciferase reporter cells, luminescence, 24 h. Potency, µM (series often up to 38.3 µM), inactives show top-dose activity change, negative = inhibition, actives largely listed as inhibitors. 410,000 tested, 0.13% active;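 further: loss of luciferase light is scored as toxicity; on the % scale 0 is the no-effect control and ±100 the full control effect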
#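 A 23 nL compound transfer followed 12 hours of cell culture at 37 deg C; exposure then lasted 24 hr. Luciferase assay detection reagent was dispensed and plates read for luminescence after a 12 min room-temperature wait.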
# MCF10A rereplic: induces DNA re-replication in MCF 10a normal breast cells; MCF 10A DNA re-replication, Hoechst nuclear intensity, 48 h; Potency, µM (titrated, usually from 46.1 µM), inactives show top-dose activity, positive = re-replication, most hits filed as activators; 350,000 tested, 2.9% active; AID 624296; further: % of control where 0% means no effect; nearly all actives have a fitted effect of over 50% in size
# KB-3-1 cytotox: KB-3-1 parental cell cytotoxicity | Potency, µM (titrated, usually from 46.1 µM), for inactives: top-dose activity change, negative = cytotoxic, most hits filed as cytotoxic | AID 1347075 | 400,000 tested, 1.4% active | KB-3-1 viability, CellTiter-Glo ATP luminescence, 72 h; further: on the % scale 0 is the no-effect control and ±100 the full control effect; nearly all actives have a fitted effect of over 60% in size
#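 KB-3-1 parental drug-naive adenocarcinoma cells in DMEM/10% FBS, incubated 72 h at 37 C with pin-transferred compounds across a concentration series. Viability by CellTiter-Glo luminescence; concentration-response curves fitted after normalization.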
# SW480 rereplic: induces DNA re-replication in SW480 colon adenocarcinoma cells | SW480 DNA re-replication, Hoechst DNA content imaging, 48 h | AID 624297 | Potency, µM (top dose mostly 46.1 µM), inactives show top-dose re-replication activation, hits mostly activators | 340,000 tested, 1.8% active; further: % of control where 0% means no effect; nearly all actives have a fitted effect of over 55% in size
#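 Readout is total intensity of Hoechst-stained nuclei, excited at 405 nm and collected at 500-530 nm. Compound treatment lasted 48 hr at 37 C in 5% CO2 before staining.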
# KB-V1 MDR tox: kills drug-selected multidrug resistant KB-V1 cells; KB-V1 MDR cells viability, CellTiter-Glo, 72 h; Potency, µM (series often up to 46.1 µM), for inactives: top-dose activity change, negative = cytotoxicity, usual class: cytotoxic; 400,000 tested, 3.4% active; AID 1347076; further: on the % scale 0 is the no-effect control and ±100 the full control effect; nearly all actives have a fitted effect of over 60% in size
#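 KB-V1 MDR subline cells in DMEM (phenol-red free, 10% FBS) exposed to compounds in qHTS concentration series for 72 h at 37 degrees C. Viability read by CellTiter-Glo luminescence; concentration-effect curves fitted after normalization and correction.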
# * hit, by the source's call; ? = inconclusive; & = joins results of further samples. The call rests on the fitted dose curve; in most records, active means well fitted curve in the direction sought with a large enough effect; inconclusive means small, poorly fitted or top-dose-only effect, or another doubt; inactive means no such curve, though single readings can be large; an effect the other way counts as inactive or inconclusive. Potency means the concentration at half of the fitted maximal effect. An excerpt; rates above refer to the full screens.
1. CCCC(=O)Nc1ccc(OCC(O)CNC(C)C)c(C(C)=O)c1 (stereo unspecified)
2. COc1ccc([C@@H]2Sc3ccccc3N(CCN(C)C)C(=O)[C@@H]2OC(C)=O)cc1
3. Cn1c(=O)c2c(ncn2C)n(C)c1=O
4. COc1c(N2C[C@@H]3CCCN[C@@H]3C2)c(F)cc2c(=O)c(C(=O)O)cn(C3CC3)c12
5. CC(=O)Oc1ccccc1C(=O)O
6. CC(=O)O[C@]1(C(C)=O)CC[C@H]2[C@@H]3C[C@H](C)C4=CC(=O)CC[C@]4(C)[C@H]3CC[C@@]21C
assay / entry	1	2	3	4	5	6
HEK293 tox	-10%	5%	1%	-2%	2%	-1%&-2%
MCF10A rereplic	2%&13%	12%&-46%&0%	3%	-12%	4%&-25%	?
KB-3-1 cytotox	0%	0%	0%	0%	0%	-6%&0%
SW480 rereplic	-2%&-63%	?	10%	-18%	0%&-29%	?
KB-V1 MDR tox	14%	16%	-2%	1%	8%	?

7. OCCNCCO
8. CCN(CC)c1ccc(N)cc1
9. CN=C(C[N+](=O)[O-])NCCSCc1ccc(CN(C)C)o1
10. CN/C(=C/[N+](=O)[O-])NCCSCc1ccc(CN(C)C)o1
assay / entry	7	8	9	10
HEK293 tox	-2%	-17%	-2%	1%
MCF10A rereplic	?	?	-8%	5%&6%
KB-3-1 cytotox	0%	?	0%	0%
SW480 rereplic	-1%	?	13%	-1%&-102%
KB-V1 MDR tox	6%	-14%	6%	3%

# Entries from the list above containing an aryl methoxy group:
2. COc1ccc([C@@H]2Sc3ccccc3N(CCN(C)C)C(=O)[C@@H]2OC(C)=O)cc1
4. COc1c(N2C[C@@H]3CCCN[C@@H]3C2)c(F)cc2c(=O)c(C(=O)O)cn(C3CC3)c12
assay / entry	2	4
HEK293 tox	5%	-2%
MCF10A rereplic	12%&-46%&0%	-12%
KB-3-1 cytotox	0%	0%
SW480 rereplic	?	-18%
KB-V1 MDR tox	16%	1%

# Complete entries, looked up by structure.
# `CCCC(=O)Nc1ccc(OCC(O)CNC(C)C)c(C(C)=O)c1` (stereo unspecified) in the list: HEK293 tox = -10%; MCF10A rereplic = 2%&13%; KB-3-1 cytotox = 0%; SW480 rereplic = -2%&-63%; KB-V1 MDR tox = 14%
# `CN=C(C[N+](=O)[O-])NCCSCc1ccc(CN(C)C)o1` in the list: HEK293 tox = -2%; MCF10A rereplic = -8%; KB-3-1 cytotox = 0%; SW480 rereplic = 13%; KB-V1 MDR tox = 6%
# `CN/C(=C/[N+](=O)[O-])NCCSCc1ccc(CN(C)C)o1` in the list: HEK293 tox = 1%; MCF10A rereplic = 5%&6%; KB-3-1 cytotox = 0%; SW480 rereplic = -1%&-102%; KB-V1 MDR tox = 3%

# Assay outcomes as filed in PubChem.
